Choline anaer gr: choline-fed anaerobic bacterial growth inhibition; Gram-negative bacterium anaerobic choline minimal medium, absorbance growth; hits give low values; many inactives read as strong as hits in the columns shown; AID 1963822; 0.2% of 55,000 active; calls only;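 active = growth z-score on choline under -2 at 7 or 20 h with little or no fall on glycerol, limits in tiers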;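 note: stock transfer was 300 nL into about 50 µL; the organism is E. coli; final concentration not given here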
Choline anaer gr early: second read-out of Choline anaer gr, no call of its own (marks repeat the call); z-score; measured here: choline growth z-score, timepoint 1;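 score of optical density at 7 h as mean of two plates; lower means less growth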
* = called active by the depositor; i = inactive; & = joins results of further samples. An excerpt; rates above refer to the full screens.

SMILES	Choline anaer gr	Choline anaer gr early
COC(=O)c1sc2ccc(NC(=O)C3CCN(S(=O)(=O)N4CCOCC4)CC3)cc2c1OC	i	-0.04
CC(=O)Nc1c2n(c3ccc(F)cc13)CC(C)(C(=O)NC1CCCC1)N(CC1CCCO1)C2=O (stereo not given)	i	0.11
COCCN[C@H]1CS(=O)(=O)C[C@@H]1S(=O)(=O)c1ccc(OC)cc1	i	0.43
CC(C)NC(=O)N1CCCC(c2cccc(C(=O)NC3CC3)c2)C1 (stereo not given)	i	0.4
CN1C2CC(OC(=O)[C@H](CO)c3ccccc3)CC1C1OC12 (stereo not given in full)	i	0.03
CCOC(=O)c1nc(Nc2ccc3c(c2)OCCO3)c2c(C)c(C)n(-c3ccccc3)c2n1	i	0.18
O=C(CC1CCN(S(=O)(=O)c2cccs2)CC1)NCCCN1CCOCC1	i	-0.06
Cc1cc(C)c2c(n1)SCCN2C(=O)Nc1ccc2c(c1)OCO2	i	0.3
Cc1sc(-c2cc(C(F)(F)F)on2)cc1S(=O)(=O)NCc1ccc2c(c1)OCO2	i	-0.36
Cn1c(=O)c2nc(SCCC(=O)Nc3ccc(Br)cc3)n(C)c2n(C)c1=O	i	0.75

Some of the entries above, set out differently.
SMILES: Cc1cc(C)c2c(n1)SCCN2C(=O)Nc1ccc2c(c1)OCO2
  Choline anaer gr = i
  Choline anaer gr early = 0.3
SMILES: Cc1sc(-c2cc(C(F)(F)F)on2)cc1S(=O)(=O)NCc1ccc2c(c1)OCO2
  Choline anaer gr = i
  Choline anaer gr early = -0.36
SMILES: Cn1c(=O)c2nc(SCCC(=O)Nc3ccc(Br)cc3)n(C)c2n(C)c1=O
  Choline anaer gr = i
  Choline anaer gr early = 0.75

Next part:
SMILES	Choline anaer gr	Choline anaer gr early
c1ccc2[nH]c(SCc3ccncc3)nc2c1	i	-1.91
O=C(Cn1ncc2c(c1=O)N(C1CC1)C(=O)CS2)NCc1ccc2c(c1)OCO2	i	0.08
Cc1c(CCNC(=O)c2ccccc2Br)sc2nc(-c3ccc(F)cc3)nn12	i	2.25
COc1ccc(-n2nc(C(=O)N3CCC(Cc4ccccc4)CC3)c3ccccc3c2=O)c(OC)c1	i	0.58
Fc1ccc(-c2csc(Cc3nc(-c4ccccc4Cl)no3)n2)cc1	i	0.14
COc1cc(-c2nc3sc4c(c3c(=O)[nH]2)CCCC4)ccc1OCc1ccccc1	i	-1.2
CCCCc1ccc(Nc2cc(C)nc(-n3nc(C)cc3C)n2)cc1	i	0.92
CC(=O)N1CCc2cc(S(=O)(=O)NC(C(=O)NCCc3ccc(S(N)(=O)=O)cc3)C(C)C)ccc21 (stereo not given)	i	0.4
O=C(NC1CCCCC1)C1CCN(c2ccc(-c3cccc(F)c3)nn2)CC1	i	0.88
O=S(=O)(c1cccn2c(SCc3cc(F)cc(F)c3)nnc12)N1CCCC1	i	-0.42
Cc1nn2c(=O)c(C(=O)O)cnc2s1	i	0.8
O=C(NCCCn1cccn1)C1CCc2nc(N3CCCCC3)ncc2C1 (stereo not given)	i	0.97
Cn1nc(C(=O)Nc2ccccc2)c2c1CCN(C(=O)CCC(=O)N1CCCCC1)C2	i	-1.8
COc1cccc(-n2c(-c3ccc(Cl)cc3)cn3c4c(=O)n(C)c(=O)n(C)c4nc23)c1	i	-0.1
COc1ccc(-c2nn3c(=O)c(NC(=O)c4ccccc4OC)cnc3o2)cc1	i	1.59
COc1ccc(-c2noc(-c3nn(-c4ccc(Cl)cc4)ccc3=O)n2)cc1	i	-0.5
CC(C)c1ccc(C(CNC(=O)c2cc(=O)c3ccc(Br)cc3o2)N2CCOCC2)cc1 (stereo not given)	i	-0.53
CCCCNC(=O)CCc1c(C)[nH]n(-c2nc(C)c(C)s2)c1=O	i	-0.87
C=C1/C(=C\C=C2/CCC[C@]3(C)[C@@H]([C@H](C)CCCC(C)(C)O)CC[C@@H]23)C[C@@H](O)C[C@@H]1O	i	-0.44&-0.4
CC1CCCCN1C(=O)c1cc(-c2cccnc2)n(-c2ccccc2)n1 (stereo not given)	i	0.07
Cc1ccc(-c2ccc(=O)n(C(C)C(=O)Nc3ccc(F)cc3)n2)cc1S(=O)(=O)N1CCCCC1 (stereo not given)	i	-1.33
COc1ccc(-c2noc(CSc3nccn3-c3ccc(C)cc3)n2)cc1	i	0.1
O=C1OC(CN2CCOCC2)CN1/N=C/c1ccc([N+](=O)[O-])o1 (stereo not given)	i	-2.74&-2.73
COc1ccc(S(=O)(=O)N2CCN(c3cc(N4CCCCC4)nc(C)n3)CC2)cc1C	i	0.63
CCc1cc(-c2csc(S(=O)(=O)Nc3ccc(C)cc3Br)c2)on1	i	-0.83
CCC(C)NC(=O)c1cccc(Nc2ncc(-c3cccc(C)c3)cn2)c1 (stereo not given)	i	0.51
CCCOc1c(C(=O)OC)sc2ccc(NC(=O)CN3C(=O)C(C)Oc4ccccc43)cc12 (stereo not given)	i	0.99
CN(C(=O)c1ccc(Nc2cc(-c3ccc(F)cc3)ncn2)cc1)C1CCCCC1	i	0.04
CCCN1C(SCC(=O)Nc2ccc(C)cc2Cl)=NS(=O)(=O)c2ccccc21	i	1.46
O=c1n(Cc2ccccc2)nc2c(S(=O)(=O)N3CCCCC3)cccn12	i	0.91
O=C(Nc1ccc2c(c1)OCCO2)N1CCN(c2ccc(-c3noc(C4CCC4)n3)cc2)CC1	i	1.06
CC(C)c1ccc(-c2noc(N3CCC(C(=O)NCCN4CCCC4)CC3)n2)cc1	i	-1.01
CCCN1CCN(CCCNC(=O)c2cc3cccc4c3n2CC(CC)O4)CC1 (stereo not given)	i	0.47
CN(C)CCc1c[nH]c2ccc(CC3COC(=O)N3)cc12 (stereo not given)	i	0.35
Cc1ccc(-c2nc3n(CC(=O)NC4CC4)c4c(c(=O)n3n2)CCC4)cc1	i	0.19
CCCCNC(=O)C1CCCN(c2ncc(-c3ccc(F)cc3)cn2)C1 (stereo not given)	i	0.63
O=C(Nc1ccc(Br)cc1)Nc1ccc(-c2nnc(-c3ccccc3)o2)cc1	i	-0.96
Nc1ncnc2n[nH]c(Nc3ccc(F)cc3)c12	i	-0.01&-0.9&-0.26
CCc1ccc(OCc2nc(C)c(C(=O)Nc3nc4ccc(C)cc4s3)s2)cc1	i	-0.23
Cc1nnc(NC(=O)CCc2nc(CSc3nc4cc(Cl)ccc4o3)no2)s1	i	0.38

A stretch from the list above, as a working copy:
SMILES	Choline anaer gr	Choline anaer gr early
COC(=O)c1sc2ccc(NC(=O)C3CCN(S(=O)(=O)N4CCOCC4)CC3)cc2c1OC	i	-0.04
CC(=O)Nc1c2n(c3ccc(F)cc13)CC(C)(C(=O)NC1CCCC1)N(CC1CCCO1)C2=O (stereo not given)	i	0.11
COCCN[C@H]1CS(=O)(=O)C[C@@H]1S(=O)(=O)c1ccc(OC)cc1	i	0.43

The listing continues:
SMILES	Choline anaer gr	Choline anaer gr early
O=C(CSCc1nc(-c2ccc(F)cc2)no1)N1CCNC1=O	i	-0.02
NC1CCN(c2c(F)cc3c(=O)c(C(=O)O)cn(C4CC4)c3c2Cl)C1 (stereo not given)	i	-2.62&-2.69&-3.16
O=C1CC(C(=O)c2ccc3c(c2)OCO3)c2c(n[nH]c2-c2ccccc2)N1 (stereo not given)	i	1.23
CCn1nccc1C1CCCN1S(=O)(=O)c1cc(C)ccc1C (stereo not given)	i	-0.22
CCN(Cc1ccccc1)c1ncc(NS(=O)(=O)c2c(C)cc(C)cc2C)cc1C(=O)O	i	-0.49
CCOc1ccc(NC(=O)N2CCC(n3cnc4cc(C(=O)N(C)C)ccc43)CC2)cc1	i	-0.47
CCc1cccc(C)c1NC(=O)Cn1c(C(=O)OC)c(NC(C)=O)c2c(C)c(C)sc21	i	0.87
COCCNC(=O)N1CC(c2nc(C)no2)C2(CCOCC2)C1 (stereo not given)	i	1.09
COC(=O)CNC(=O)c1sc2ncccc2c1-n1cccc1	i	-1.51
CCS(=O)(=O)c1ccc(-c2ccc(NC(=O)c3ccc(C)c(C)c3)cc2)nn1	i	1
Cc1csc(-c2cc(S(=O)(=O)NCCN(C)C)cn2CC(=O)N2CCCCC2)n1	i	0.22
CCCc1cc(C2CCCN2Cc2cccc(C)c2)no1 (stereo not given)	i	-1.13
O=S(=O)(c1cc(-c2nnc(C3CCCC3)o2)co1)N1CCN(C2CCCCC2)CC1	i	-1.7
CC1CCN(S(=O)(=O)c2ccc3nn(CC(=O)OC(C)C)c(=O)n3c2)CC1	i	-1.26
Cc1ccnc(Nc2nc(-c3ccc4c(c3)OCO4)cs2)c1	i	1.92
O=C(c1cc(-c2ccccn2)n[nH]1)N1CCN(C(=O)C2CCC2)CC1	i	0.4
CCOC(=O)c1cn[nH]c1S(=O)(=O)N1c2ccccc2CC1C (stereo not given)	i	-0.58
CCCC(=O)Nc1cccc(OCc2cc(=O)n3ccccc3n2)c1	i	0.6
Cc1ccc(C)c(-c2nnc(NC(=O)c3ccc4c(c3)OCCO4)o2)c1	i	-0.25
O=C(Nc1ccc(F)cc1F)NC1CCN(c2ccc(F)cc2)C1=O (stereo not given)	i	-1.42

A few values from above.
Cc1csc(-c2cc(S(=O)(=O)NCCN(C)C)cn2CC(=O)N2CCCCC2)n1 | Choline anaer gr early: 0.22
O=S(=O)(c1cc(-c2nnc(C3CCCC3)o2)co1)N1CCN(C2CCCCC2)CC1 | Choline anaer gr early: -1.7
CCCC(=O)Nc1cccc(OCc2cc(=O)n3ccccc3n2)c1 | Choline anaer gr early: 0.6
Cc1ccc(C)c(-c2nnc(NC(=O)c3ccc4c(c3)OCCO4)o2)c1 | Choline anaer gr early: -0.25
CC1CCN(S(=O)(=O)c2ccc3nn(CC(=O)OC(C)C)c(=O)n3c2)CC1 | Choline anaer gr early: -1.26

(cont.)
SMILES	Choline anaer gr	Choline anaer gr early
O=C(CCC(=O)N1CCc2ccccc21)Nc1noc2ccccc12	i	-0.25
O=C(Nc1ccc2c(c1)OCCO2)N1CCCC1c1ccc(F)cc1 (stereo not given)	i	0.31
CS(=O)(=O)N1CCCN(C(=O)C2CCC2)CC1	i	0.33
O=C(C1CCN(c2nc3ccccc3[nH]2)CC1)N1CCN(c2ccccn2)CC1	i	1.06
Cc1c(Cl)cccc1NC(=O)Cn1cc(C(=O)c2ccncc2)c(=O)c2cc(Cl)ccc21	i	0.12
COc1ccc(OCc2nn3c(-c4ccc(OC)c(OC)c4)nnc3s2)cc1	i	0.83
O=C(C1CC1)N1CCc2cc(Br)c(S(=O)(=O)N3CCN(c4ccccn4)CC3)cc21	i	-0.62
COc1cc(OC)cc(-c2nc(NC(=O)C3CCCN(c4cnc5ccccc5n4)C3)n[nH]2)c1 (stereo not given)	i	0.6
COc1ccc(CN2C(=O)CC(c3ccc(OC)c(OC)c3)CC2=O)cc1	i	1.14
Cc1[nH]c(-c2nnc(C3CCC3)o2)c(C)c1S(=O)(=O)N1CCCCCC1	i	0.74
O=C(NCCc1ccc(Cl)cc1)C1CCC(CNc2c(N3CCCC3)c(=O)c2=O)CC1 (stereo not given)	i	-0.23
CCOc1ccc(NC(=O)CN2CCCN(Cc3cc(C)ccc3C)S2(=O)=O)cc1	i	-1.25
COc1ccc(-n2ccc(=O)c(-c3nc(-c4ccc(Br)cc4)no3)n2)cc1	i	1.09
Cc1[nH]c(C)c(S(=O)(=O)N2CCCCC2)c1-c1nc(C2CC2)no1	i	0.79
Cc1cc(C)c2c(n1)SCCN2C(=O)NCC(=O)NC1CCCC1	i	0.9
Cc1ccc(-c2noc(CCC(=O)Nc3ccc(CCc4nc5ccc(C)cc5[nH]4)cc3)n2)cc1	i	0.92
Cc1ccc(-n2cc[nH]c(=O)c2=O)cc1Cl	i	0.14
Cc1cccc(S(=O)(=O)N2CCCN(c3nc4cccnc4s3)CC2)c1	i	0.09
C=CCn1c(SCC(=O)Nc2ccccc2O)nnc1-c1cc2ccccc2o1	i	-1.03
CCCC(C(=O)Nc1cccc(F)c1)N1Cc2ccccc2C1=O (stereo not given)	i	1.01
O=c1c2ccccc2[nH]c(=S)n1CCN1CCCCC1	i	-0.73
Cc1nc(-n2[nH]c(C)c(Cc3ccccc3)c2=O)sc1C(=O)NC(C)C	i	-1.02
CCOC(=O)c1ccc(NC(=O)C2CCCN(C(=O)c3cc(C)cc(C)c3)C2)cc1 (stereo not given)	i	-0.66
Cn1c(=O)c(C(=O)N2CCN(c3ccccn3)CC2)nc2ccccc21	i	-1.71
Cc1ccc(-n2nc(N3CCCN(C(=O)c4[nH]nc5c4CCc4ccccc4-5)CC3)ccc2=O)cc1C	i	-0.05
Cc1nc(CCNC(=O)[C@H]2CCCN2S(=O)(=O)c2ccc(Br)cc2)cs1	i	0.45
Cc1nn(C)c2nc(OC(C)C(=O)N3CCc4ccccc43)cc(-c3ccccc3)c12 (stereo not given)	i	0.41
COc1ccc(C(=O)N2CCc3ccc(CNS(C)(=O)=O)cc32)cc1	i	-1.28
CCN1CCN(c2cc(C)nc3c(-c4ccc(Cl)cc4)c(C(F)(F)F)nn23)CC1	i	-0.32
CC(C)NC(=O)N1CCN(c2cc(-c3ccc(F)cc3)ncn2)CC1	i	-1.64
O=C(C1CC(c2c(F)cccc2Cl)=NO1)N1CCCC1 (stereo not given)	i	-0.1
NC(=O)CSc1nnc2n(CCC(=O)NC3CCCCC3)c(=O)c3ccccc3n12	i	0.45
CCCN1CCN(c2ccc(C(=O)O)cc2NC(=O)c2ccccc2Cl)CC1	i	0.09
CCCCc1cnc2c(c1SC(C)C)c(=O)n(C)c(=O)n2C	i	-0.34
CCCN1CCN(CCCNc2nn3nnnc3c3ccccc23)CC1	i	-1.53
CCN(CC)C(=O)c1cc(NS(=O)(=O)c2ccc(Br)cc2)cnc1N1CCNCC1	i	0.34
Cc1nn(-c2ccc3nncn3n2)c(C)c1CCC(=O)Nc1ccc(F)c(F)c1	i	1.29
COc1ccc(OC)c(NS(=O)(=O)c2cc(-c3nc(C)cs3)n(CC(=O)N3CCCC3)c2)c1	i	0.12

Screening data: PubChem, ICCB-Longwood Screening Facility, Harvard Medical School
